CHRM5 agonist = agonists of human muscarinic M5 receptor (CHRM5) | AID 624037 | P08912 | 360,000 tested, 0.19% active | activation, % at 3 µM | CHO-K1 hM5 cells, Fluo-8 calcium fluorescence; 0% DMSO wells, 100% maximal acetylcholine response;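 active = activation above the run's mean over test compounds plus 3 SD, cut at about 23% in these data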;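 note: signal is peak over basal fluorescence ratio across the kinetic read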
M5 antag = CHRM5 antagonism in calcium assay | P08912 | CHO-hM5 cells, Fluo-8 calcium fluorescence, ACh EC80 | inhibition, % at 3 µM | 360,000 tested, 0.59% active | AID 624040;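 active = inhibition above a per-plate cutoff, the mean of that plate's test compounds plus 3 SD, cut at about 27% in these data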;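 note: 0% = acetylcholine EC80 with DMSO and 100% = DMSO without agonist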
CRFR2-BP antag = blocks CRF-induced signaling of the CRF-BP/CRF-R2 complex; HEK293 CRF-R2/CRF-BP, CRF-induced calcium fluorescence; inhibition, % at 11.8 µM; 350,000 tested, 0.59% active;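 active = inhibition of the ligand-induced calcium signal above about 50% at the single tested concentration, limit read from the data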
IDE cell inh = inhibitors of human insulin-degrading enzyme in cells; P14735; HEK cells, FAbetaB cleavage, fluorescence polarization; inhibition, % at 5.59 µM; 320,000 tested, 0.41% active; AID 434962;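 active = percent inhibition above the average of all tested compounds plus 3 SD, set per screening campaign, cut at about 16% in these data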;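 note: IDE supplied by intact live HEK cells; FP after avidin binding of uncleaved biotin substrate so inhibition keeps polarization high; 0% = DMSO wells and 100% = 60 µM reference IDE inhibitor Ii1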
Target sequence (P14735 whole entry, looked up): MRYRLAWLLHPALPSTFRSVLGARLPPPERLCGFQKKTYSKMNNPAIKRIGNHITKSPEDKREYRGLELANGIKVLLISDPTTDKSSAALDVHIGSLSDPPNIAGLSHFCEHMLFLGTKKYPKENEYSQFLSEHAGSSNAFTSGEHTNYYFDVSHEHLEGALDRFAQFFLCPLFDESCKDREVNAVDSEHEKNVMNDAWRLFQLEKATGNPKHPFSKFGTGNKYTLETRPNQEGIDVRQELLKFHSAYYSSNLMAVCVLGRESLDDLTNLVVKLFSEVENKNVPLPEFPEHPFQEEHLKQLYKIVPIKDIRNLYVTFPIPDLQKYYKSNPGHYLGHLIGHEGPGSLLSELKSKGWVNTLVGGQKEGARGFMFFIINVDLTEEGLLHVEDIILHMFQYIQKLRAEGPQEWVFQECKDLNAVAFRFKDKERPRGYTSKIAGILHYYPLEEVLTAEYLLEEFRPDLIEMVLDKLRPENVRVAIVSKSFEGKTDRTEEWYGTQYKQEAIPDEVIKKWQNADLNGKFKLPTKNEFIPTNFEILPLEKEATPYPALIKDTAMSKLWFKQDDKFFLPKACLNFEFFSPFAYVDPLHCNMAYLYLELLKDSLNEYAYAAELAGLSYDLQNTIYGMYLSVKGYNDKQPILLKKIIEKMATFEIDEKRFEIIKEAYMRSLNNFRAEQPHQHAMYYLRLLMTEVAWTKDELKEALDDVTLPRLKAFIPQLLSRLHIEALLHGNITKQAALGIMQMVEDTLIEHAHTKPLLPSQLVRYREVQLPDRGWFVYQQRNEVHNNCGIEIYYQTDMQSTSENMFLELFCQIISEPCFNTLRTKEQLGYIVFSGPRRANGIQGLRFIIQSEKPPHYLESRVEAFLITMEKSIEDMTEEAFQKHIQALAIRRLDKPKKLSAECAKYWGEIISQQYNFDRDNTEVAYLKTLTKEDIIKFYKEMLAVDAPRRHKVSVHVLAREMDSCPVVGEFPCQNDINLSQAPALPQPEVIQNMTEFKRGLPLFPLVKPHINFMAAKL
CHRM5 PAM = positive allosteric modulators of human muscarinic M5 receptor; P08912; CHO-K1 hM5, Fluo-8 calcium, ACh EC20 PAM; 0% = ACh EC20, 100% = ACh EC100; activation, % at 3 µM; 360,000 tested, 0.3% active; AID 624038;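 active = activation above the run cutoff, the mean activation of all test compounds plus 3 SD, cut at about 18% in these data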
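Measured by: Fluo-8 calcium fluorescence; material: human M5 receptor in CHO-K1 cells; schedule: Post-acetylcholine fluorescence recording 140 s; benchmarks: low control EC20 acetylcholine (0%), high control EC100 acetylcholine (100%); read-out: Max/basal fluorescence ratio as % of EC20–EC100 ACh window; compound: single dose, 3 µM nominal final test concentration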
Starred values were filed as active, the others as inactive; i = inactive; x = no result given; & = joins results of further samples.

SMILES | CHRM5 agonist | M5 antag | CRFR2-BP antag | IDE cell inh | CHRM5 PAM
c1ccc2c(c1)CCCC2C1=NCCN1 (stereo not given) | 0 | -2 | -22 | -1 | 3
CC(=O)O[C@H]1C(=O)[C@]2(C)[C@H]([C@H](OC(=O)c3ccccc3)[C@]3(O)C[C@H](OC(=O)[C@H](O)[C@@H](NC(=O)c4ccccc4)c4ccccc4)C(C)=C1C3(C)C)[C@]1(OC(C)=O)CO[C@@H]1C[C@@H]2O | 0 | -11 | 15 | -1 | 0
CN(C)CCCN1c2ccccc2Sc2ccc(C(F)(F)F)cc21 | 1 | 98* | -20 | -3 | -18
CC(C)(C)NC(=O)[C@@H]1CN(Cc2cccnc2)CCN1C[C@@H](O)C[C@@H](Cc1ccccc1)C(=O)N[C@H]1c2ccccc2C[C@H]1O | 0 | 5 | 13 | -4 | 0
CC(C)NCC(O)c1cc(O)cc(O)c1 (stereo not given) | -1 | 6 | 6 | -3 | -8
CC1(C)SC2C(NC(=O)COc3ccccc3)C(=O)N2C1C(=O)O (stereo not given) | 1&-4 | -1&1 | 18&1 | 4&0 | 1&-2
CCOc1ccc(Cn2nnc(C(=O)NCc3ccccc3)c2N)cc1 | 35* | 4 | -47 | -1 | -11
COc1ccc2[nH]cc(CCNC(C)=O)c2c1 | 1 | 1 | -2 | -3 | 4
CC(C)Oc1ccc2c(=O)c(-c3ccccc3)coc2c1 | -1 | 2 | -4 | 5 | -3
CCCC(=O)Nc1ncnc2c1ncn2[C@@H]1O[C@@H]2COP(=O)(O)O[C@H]2[C@H]1OC(=O)CCC | 0&0 | -5&-7 | 12&-21 | 2 | 2&11
CC(C)NC[C@@H](O)COc1cccc2ccccc12 | 1 | -4 | i | -1 | -5
OC1C(O)C(O)C(O)C(O)C1O (stereo not given) | 0&1&1 | -10&3&-3 | -14&9&12 | 0&4&0 | 6&-3&-3
COC(=O)CCC(=O)CN | 1 | -7 | -16 | 0 | 2
O=C(Cc1ccc(Cl)cc1)NC(=S)Nc1ccccc1O | 75* | 65* | -66 | 2 | -19
CN/C(=C\[N+](=O)[O-])NCCSCc1ccc(CN(C)C)o1 | 1 | 4 | 3 | 3 | -1
CN(C)CCC(c1ccc(Br)cc1)c1ccccn1 (stereo not given) | -1&-2&-2 | 14&10&5 | 11&-8&-2 | 4&2 | -18&-18&-16
CC(C)(Oc1ccc(Cl)cc1)C(=O)O | 1 | 6 | 3 | 1 | -5
Oc1c(Cl)cc(Cl)c(Cl)c1Cc1c(O)c(Cl)cc(Cl)c1Cl | 7 | 14 | 47 | -2 | -16
CCCCC(=O)NNC(=S)NC(=O)C(c1ccccc1)c1ccccc1 | 76* | 28* | -44 | 4 | -22
CN(C)CC[C@@H](c1ccc(Br)cc1)c1ccccn1 | 0 | -1 | -3 | 2 | -18
Cc1ncc([N+](=O)[O-])n1CC(O)CCl (stereo not given) | 14 | -10 | 16 | 1 | 10
O=C(O)CC(O)(CC(=O)O)C(=O)O | 3 | 5 | -1 | 8 | 5
CC(=O)C1CCC2C3CCC4CC(=O)CCC4(C)C3C=CC12C (stereo not given) | 1 | 11 | -18 | x | -1
CN(C)CC/C=C1\c2ccccc2Sc2ccc(Cl)cc21 | 2 | 100* | -11 | 0 | -18
Cc1sc2ncnc(N3CCC(C(=O)Nc4ccc(F)cc4Cl)CC3)c2c1C | -3 | 8 | 2 | 4 | -35
CCCCOc1ccc(OCCCN2CCOCC2)cc1 | -1 | -1 | 0 | 1 | -8
CC(C)NC[C@H](O)COc1cccc2ccccc12 | 11 | 5 | i | 0 | -13
CN1CCC(OC(c2ccccc2)c2ccccc2)CC1 | -2 | 96* | -30 | -3 | -19
CN1C(=O)c2cccc3c(N)ccc(c23)C1=O | 46* | 14 | -199 | 14 | -13

Arranged by SMILES length (lowest first): part of the list above.
SMILES | CHRM5 agonist | M5 antag | CRFR2-BP antag | IDE cell inh | CHRM5 PAM
CC(=O)C1CCC2C3CCC4CC(=O)CCC4(C)C3C=CC12C (stereo not given) | 1 | 11 | -18 | x | -1
CCCCC(=O)NNC(=S)NC(=O)C(c1ccccc1)c1ccccc1 | 76* | 28* | -44 | 4 | -22
CC(=O)O[C@H]1C(=O)[C@]2(C)[C@H]([C@H](OC(=O)c3ccccc3)[C@]3(O)C[C@H](OC(=O)[C@H](O)[C@@H](NC(=O)c4ccccc4)c4ccccc4)C(C)=C1C3(C)C)[C@]1(OC(C)=O)CO[C@@H]1C[C@@H]2O | 0 | -11 | 15 | -1 | 0

Sorted by SMILES length (lowest first): 16 of the compounds above.
SMILES | CHRM5 agonist | M5 antag | CRFR2-BP antag | IDE cell inh | CHRM5 PAM
CC(C)NCC(O)c1cc(O)cc(O)c1 (stereo not given) | -1 | 6 | 6 | -3 | -8
CC(C)(Oc1ccc(Cl)cc1)C(=O)O | 1 | 6 | 3 | 1 | -5
CCCCOc1ccc(OCCCN2CCOCC2)cc1 | -1 | -1 | 0 | 1 | -8
COc1ccc2[nH]cc(CCNC(C)=O)c2c1 | 1 | 1 | -2 | -3 | 4
CN(C)CCC(c1ccc(Br)cc1)c1ccccn1 (stereo not given) | -1&-2&-2 | 14&10&5 | 11&-8&-2 | 4&2 | -18&-18&-16
CN1CCC(OC(c2ccccc2)c2ccccc2)CC1 | -2 | 96* | -30 | -3 | -19
O=C(Cc1ccc(Cl)cc1)NC(=S)Nc1ccccc1O | 75* | 65* | -66 | 2 | -19
CN(C)CC[C@@H](c1ccc(Br)cc1)c1ccccn1 | 0 | -1 | -3 | 2 | -18
CN(C)CCCN1c2ccccc2Sc2ccc(C(F)(F)F)cc21 | 1 | 98* | -20 | -3 | -18
CCOc1ccc(Cn2nnc(C(=O)NCc3ccccc3)c2N)cc1 | 35* | 4 | -47 | -1 | -11
CC(=O)C1CCC2C3CCC4CC(=O)CCC4(C)C3C=CC12C (stereo not given) | 1 | 11 | -18 | x | -1
CN/C(=C\[N+](=O)[O-])NCCSCc1ccc(CN(C)C)o1 | 1 | 4 | 3 | 3 | -1
Oc1c(Cl)cc(Cl)c(Cl)c1Cc1c(O)c(Cl)cc(Cl)c1Cl | 7 | 14 | 47 | -2 | -16
CCCC(=O)Nc1ncnc2c1ncn2[C@@H]1O[C@@H]2COP(=O)(O)O[C@H]2[C@H]1OC(=O)CCC | 0&0 | -5&-7 | 12&-21 | 2 | 2&11
CC(C)(C)NC(=O)[C@@H]1CN(Cc2cccnc2)CCN1C[C@@H](O)C[C@@H](Cc1ccccc1)C(=O)N[C@H]1c2ccccc2C[C@H]1O | 0 | 5 | 13 | -4 | 0
CC(=O)O[C@H]1C(=O)[C@]2(C)[C@H]([C@H](OC(=O)c3ccccc3)[C@]3(O)C[C@H](OC(=O)[C@H](O)[C@@H](NC(=O)c4ccccc4)c4ccccc4)C(C)=C1C3(C)C)[C@]1(OC(C)=O)CO[C@@H]1C[C@@H]2O | 0 | -11 | 15 | -1 | 0

Assay outcomes from PubChem BioAssay.

This is a subset; the hit share may differ from the screen's.
